# ID4 SMM = binders of human ID4 protein; hit rate 1.2% among 31,000; P47928; small molecule microarray, Flag-ID4 binding, fluorescence F/B; calls only;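 active means spot signal over background at p below 0.07 in all four prints; compounds were printed on slides so no solution concentration is given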;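 further: a binder raises fluorescence above local background on the spot; about 2 pmol printed per array spot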
# Target sequence (P47928 whole entry, looked up): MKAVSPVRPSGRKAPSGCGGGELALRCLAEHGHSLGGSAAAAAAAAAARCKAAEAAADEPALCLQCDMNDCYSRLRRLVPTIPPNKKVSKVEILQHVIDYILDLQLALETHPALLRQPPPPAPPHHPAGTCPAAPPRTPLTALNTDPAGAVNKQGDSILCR
# STAT3 binder = binders of human STAT3; hit rate 0.2% among 17,000; Small molecule microarray, His-STAT3 binding, anti-His fluorescence; P40763; calls only; AID 624138;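 active means compounds whose four printed spots each show fluorescence over background unusually high for their array block, chance value under 7%; compounds were printed on slides so no solution concentration is given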;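 further: about 2 pmol printed per array spot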
# mut p53 SMM = mutant p53 (human) binding | small molecule microarray binding, anti-GST fluorescence | calls only | hit rate 0.4% among 17,000;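 active means compounds whose four printed spots each glow above background more than chance allows, each with a p-value under 7%; compounds were printed on slides so no solution concentration is given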;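 further: about 2 pmol printed per array spot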
# Myc binder = binders of human c-Myc; P01106; small molecule microarray, His-c-Myc binding, anti-His fluorescence; calls only; hit rate 1.5% among 17,000;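 active means spot fluorescence over background with P-value below 7% in all four replicate spots, showing protein binding; compounds were printed on slides so no solution concentration is given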;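 further: score is binary with 100 for all four spots passing and 0 otherwise; about 2 pmol printed per array spot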
# Target sequence (P01106 whole entry, looked up): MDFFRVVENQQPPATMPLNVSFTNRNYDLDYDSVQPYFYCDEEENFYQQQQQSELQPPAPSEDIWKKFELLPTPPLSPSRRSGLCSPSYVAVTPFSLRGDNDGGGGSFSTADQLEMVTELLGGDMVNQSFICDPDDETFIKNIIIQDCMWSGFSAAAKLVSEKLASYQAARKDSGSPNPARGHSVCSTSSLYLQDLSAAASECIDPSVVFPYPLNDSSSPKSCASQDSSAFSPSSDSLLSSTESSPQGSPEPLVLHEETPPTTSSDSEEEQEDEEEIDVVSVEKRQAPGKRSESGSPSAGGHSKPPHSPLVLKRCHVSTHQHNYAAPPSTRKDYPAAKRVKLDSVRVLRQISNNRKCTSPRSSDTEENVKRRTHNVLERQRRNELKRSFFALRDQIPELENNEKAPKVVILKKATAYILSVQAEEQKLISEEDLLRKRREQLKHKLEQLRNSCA
# Calls only; i = inactive; / = not tested or not shown; + = active, no number. A portion of the library; rates above refer to the full screens.
structure | ID4 SMM | STAT3 binder | mut p53 SMM | Myc binder
O=C(NCc1nc2ccccc2[nH]1)C1=C[C@H](c2ccc3c(c2)OCO3)C[C@H](OCCCCO)O1 | i | i | i | i
COc1cc2c(cc1NC(=S)NCc1ccco1)oc1ccccc12 | i | i | i | i
CNC[C@H]1OCCCC[C@H](C)Oc2ccc(N)cc2C(=O)N([C@H](C)CO)C[C@@H]1C | i | i | i | i
C[C@H](CO)N1C[C@H](C)[C@@H](CN(C)Cc2ccccc2)OCCCC[C@H](C)Oc2ccc(NS(=O)(=O)c3ccccc3)cc2C1=O | i | i | i | i
COc1cc(S(=O)(=O)n2nnc3ccccc32)c(OC)cc1Cl | + | i | i | +
O=C1CC(CSc2nnnn2-c2ccccc2)=NN1 | i | i | i | i
C[C@@H]1CN([C@H](C)CO)C(=O)c2cccc(NC(=O)c3cnccn3)c2O[C@@H]1CN(C)S(=O)(=O)c1cn(C)cn1 | i | i | i | i
C[C@H](CO)N1C[C@H](C)[C@H](CN(C)Cc2cccc3c2OCCCO3)OCc2cn(nn2)CCCC1=O | i | i | i | i
O=C(NCc1nc2ccccc2[nH]1)C1=C[C@H](c2ccccc2)C[C@H](OCCCCO)O1 | i | i | i | i
C[C@H](CO)N1C[C@H](C)[C@H](CN(C)S(=O)(=O)c2cn(C)cn2)Oc2ccc(NC(=O)CCCN(C)C)cc2CC1=O | i | i | i | i
Cc1noc(C)c1NC(=O)Nc1cccc2c1O[C@H](CN(C)S(=O)(=O)c1cn(C)cn1)[C@@H](C)CN([C@H](C)CO)C2=O | i | i | i | i
Cc1ccc(S(=O)(=O)N(C)C[C@H]2Oc3ccc(NS(=O)(=O)c4ccc(Cl)cc4)cc3CC(=O)N([C@H](C)CO)C[C@H]2C)cc1 | / | i | i | i
O=C(NCc1ccccn1)c1cnn2c1NC(c1cccs1)CC2C(F)(F)F (stereo not drawn) | i | i | i | i
C[C@@H]1CN([C@H](C)CO)C(=O)CCCn2cc(nn2)CO[C@@H]1CN(C)Cc1ccc2c(c1)OCCN2C | i | i | i | i
CNC[C@@H]1Oc2ccc(NS(=O)(=O)c3cccs3)cc2CC(=O)N([C@@H](C)CO)C[C@@H]1C | i | i | i | i
C[C@H](CO)N1C[C@H](C)[C@@H](CN(C)C(=O)CCCN(C)C)OCCCC[C@H](C)Oc2ccc(NC(=O)Cc3ccccc3)cc2C1=O | i | i | i | i
Cc1ccc(-c2nnc(SCC(=O)Nc3ccc4c(c3)oc3ccccc34)n2C)c(Cl)c1 | i | i | i | i
C[C@H](CO)N1C[C@H](C)[C@H](CN(C)C(=O)Nc2ccccc2)Oc2ccc(NC(=O)C3CC3)cc2C1=O | i | i | i | i
C[C@H](CO)N1C[C@H](C)[C@@H](CN(C)Cc2ccccc2)OCCCC[C@H](C)Oc2ccc(NS(C)(=O)=O)cc2C1=O | i | i | i | i
COC(=O)CCCCC(=O)c1[nH]c(=O)[nH]c1C | i | i | i | i
CC(C)NC(=O)N(C)C[C@H]1Oc2ccc(NC(=O)CCCN(C)C)cc2C(=O)N([C@H](C)CO)C[C@@H]1C | i | i | i | i
COc1ccc(CN(C)C[C@@H]2OCCCC[C@@H](C)Oc3ccc(NC(=O)Nc4c(C)noc4C)cc3C(=O)N([C@H](C)CO)C[C@H]2C)cc1 | i | i | i | i
COc1ccc(S(=O)(=O)N(C)C[C@@H]2Oc3c(NS(C)(=O)=O)cccc3C(=O)N([C@H](C)CO)C[C@@H]2C)cc1 | i | i | i | i
C[C@@H]1CN([C@@H](C)CO)C(=O)Cc2cc(NC(=O)NC3CCCCC3)ccc2O[C@@H]1CN(C)S(=O)(=O)c1ccc(Cl)cc1 | i | i | i | i
COC(=O)c1ccccc1NC(=O)CN(c1ccc(F)cc1)S(C)(=O)=O | i | i | i | i
COc1ccc(NC(=O)Nc2ccc3c(c2)C(=O)N([C@H](C)CO)C[C@@H](C)[C@@H](CN(C)C)O3)cc1 | i | i | i | i
C[C@H]1CN([C@@H](C)CO)C(=O)Cc2cc(NS(=O)(=O)c3cccs3)ccc2O[C@H]1CN(C)S(=O)(=O)c1ccccc1 | i | i | i | i
CNC[C@@H]1Oc2ncc(C#Cc3ccc(OC)c(OC)c3)cc2C(=O)N([C@H](C)CO)C[C@@H]1C | + | i | i | i
COc1cc(NC(=O)CSc2nnc(C)s2)cc(OC)c1OC | i | i | i | i
CNC[C@H]1Oc2ccc(NC(=O)NC3CCCCC3)cc2C(=O)N([C@H](C)CO)C[C@H]1C | i | i | i | i
Cc1ccc(S(=O)(=O)NCCC(=O)O)cc1 | i | i | i | i
C[C@H]1CN([C@@H](C)CO)C(=O)c2cccc(NS(C)(=O)=O)c2O[C@@H]1CN(C)S(=O)(=O)c1cccs1 | i | i | i | i
C[C@@H]1CN([C@H](C)CO)C(=O)Cc2cc(NC(=O)NC3CCCCC3)ccc2O[C@@H]1CN(C)Cc1ccc(C(=O)O)cc1 | i | i | i | i
C[C@@H]1CCCCO[C@H](CN(C)C(=O)Cc2ccccc2)[C@@H](C)CN([C@@H](C)CO)C(=O)c2cc(NC(=O)Nc3ccccc3)ccc2O1 | i | i | i | i
C=CCn1c(CSc2nc(N)cc(N)n2)n[nH]c1=S | i | i | i | i
COc1ccc(C)cc1S(=O)(=O)N(CC(=O)O)c1ccccc1 | i | i | i | i
COC(=O)c1cccc(O)c1C(=O)c1c(O)cc(C)cc1O | i | i | i | i
C[C@H](CO)N1C[C@H](C)[C@@H](CN(C)S(=O)(=O)c2cccs2)Oc2ccc(NC(=O)Cn3cnnn3)cc2C1=O | i | i | i | i
Cc1noc(C)c1S(=O)(=O)Nc1cccc2c1O[C@H](CN(C)C)[C@H](C)CN([C@H](C)CO)C2=O | i | i | i | i
C[C@H](CO)N1C[C@H](C)[C@H](CN(C)C(=O)Nc2ccc3c(c2)OCO3)Oc2ccc(N(C)C)cc2C1=O | i | i | i | i
CCN(CC)c1nc(Nc2ccccc2)nc(Oc2ccc(=O)[nH]n2)n1 | i | i | i | i
COc1ccc(CN(C)C[C@H]2Oc3c(NC(=O)c4ccc(-c5nccs5)cc4)cccc3C(=O)N([C@H](C)CO)C[C@H]2C)cc1 | i | i | i | i
CC(=O)N[C@H]1[C@H](O/N=[N+](\[O-])N2CCCC2)OC(CO)[C@@H](O)[C@@H]1O (stereo partly drawn) | i | i | i | i
C[C@@H]1CCCCO[C@H](CN(C)C(=O)Nc2ccccc2)[C@@H](C)CN([C@H](C)CO)C(=O)c2cc(NC(=O)CCC(F)(F)F)ccc2O1 | i | i | i | i
Cc1noc(C)c1NC(=O)Nc1ccc2c(c1)C(=O)N([C@@H](C)CO)C[C@H](C)[C@H](CN(C)Cc1ccc(C(=O)O)cc1)OCCCC[C@@H](C)O2 | / | i | i | i
C[C@H]1CN([C@@H](C)CO)C(=O)Cc2cc(NC(=O)CCCN(C)C)ccc2O[C@@H]1CN(C)S(=O)(=O)c1cn(C)cn1 | i | i | i | i
C[C@H](CO)N1C[C@H](C)[C@H](CN(C)CC2CC2)Oc2ccc(NC(=O)c3ccncc3)cc2C1=O | i | i | i | i
CC(C)Cc1cnc(CCC(N)=O)c(=O)[nH]1 | / | i | i | i
O=C(CSc1ncnc2scc(-c3ccc(Cl)cc3)c12)NCC1CCCO1 (stereo not drawn) | i | i | i | i
C[C@H](CO)N1C[C@H](C)[C@H](CN(C)S(=O)(=O)c2ccccc2)Oc2ccc(NC(=O)CCN3CCOCC3)cc2CC1=O | i | i | i | i
C[C@@H]1CCCCO[C@H](CN(C)Cc2ccc(C(=O)O)cc2)[C@@H](C)CN([C@H](C)CO)C(=O)c2cc(NC(=O)c3ccncc3)ccc2O1 | i | i | i | i
C[C@H](CO)N1C[C@H](C)[C@@H](CN(C)S(=O)(=O)c2cccs2)Oc2ccc(NC(=O)CCCN(C)C)cc2C1=O | + | i | i | i
Cn1c(=O)[nH]c(=O)c2c1ncn2CC(=O)NCc1ccccc1 | i | i | i | i
Cc1ccc(S(=O)(=O)NCCSc2nnnn2-c2cc(C)ccc2C)cc1 | i | i | i | i
C=C[C@](C)(O)CC[C@H]1C(C)=CC(=O)[C@H]2C(C)(C)CCC[C@]12C | i | i | i | i
CN1C2=C(C(=O)CC(C)(C)C2)C(c2ccccc2OCC(=O)Nc2ccc(F)cc2)C2=C1CC(C)(C)CC2=O | i | i | i | i
C[C@@H]1CCCCO[C@@H](CN(C)Cc2ccccc2)[C@@H](C)CN([C@@H](C)CO)C(=O)c2cc(NS(C)(=O)=O)ccc2O1 | i | i | i | i
Cc1noc(C)c1NC(=O)N(C)C[C@H]1Oc2ccc(NC(=O)C3CC3)cc2CC(=O)N([C@H](C)CO)C[C@@H]1C | i | i | i | i
CC(C)NC(=O)Nc1ccc2c(c1)C(=O)N([C@H](C)CO)C[C@H](C)[C@@H](CN(C)C(=O)CCCN(C)C)OCCCC[C@@H](C)O2 | i | i | i | i
COc1cc([C@H]2OC[C@H]3[C@@H]2CO[C@@H]3c2ccc(OC)c(OC)c2)ccc1O | / | i | i | i

# (continued)
structure | ID4 SMM | STAT3 binder | mut p53 SMM | Myc binder
C=CCOC(=O)[C@H]1[C@@H]2C(=O)O[C@@H](c3ccccc3)[C@@H](c3ccccc3)N2[C@@H](c2ccc(OCCOC(=O)[C@@H]3C[C@@H]4C(=O)N5CCC[C@H]5C(=O)N4[C@@H]3c3ccc(O)cc3)cc2)[C@]12C(=O)Nc1ccc(I)cc12 | + | i | i | i
Cc1noc(C)c1NC(=O)Nc1cccc2c1O[C@@H](CN(C)Cc1ccc(C(F)(F)F)cc1)[C@@H](C)CN([C@H](C)CO)C2=O | i | i | i | i
COc1ccc(NC(=O)Nc2ccc3c(c2)CC(=O)N([C@H](C)CO)C[C@@H](C)[C@H](CN(C)Cc2ccc(-c4ccccc4)cc2)O3)cc1 | / | i | i | i
COCCNS(=O)(=O)c1cc([N+](=O)[O-])ccc1C | i | i | i | i
NCCCC[C@H](N)C(=O)N[C@@H](Cc1ccccc1)C(=O)N[C@@H](Cc1ccc(O)cc1)C(=O)O | i | i | i | i
COc1cccc(OC)c1C(=O)Nc1cccc(-c2nc3ncccc3o2)c1 | i | i | i | i
CCCN(Cc1cc2cccc(C)c2[nH]c1=O)C(=O)c1cccc(Cl)c1 | i | i | i | i
CCOc1ccc2nc(SCC(=O)Nc3ccc4c(c3)OCCO4)sc2c1 | i | i | i | i
COc1ccc(S(=O)(=O)N(C)C[C@@H]2Oc3ccc(NC(=O)c4ccncc4)cc3C(=O)N([C@@H](C)CO)C[C@@H]2C)cc1 | i | i | i | i
COc1ccc(CN(C)C[C@H]2Oc3c(NC(=O)Nc4ccc(OC)cc4)cccc3C(=O)N([C@H](C)CO)C[C@@H]2C)cc1 | i | i | i | i
C[C@H](CO)N1C[C@H](C)[C@H](CN(C)Cc2ccc(-c3ccccc3)cc2)Oc2ccc(NS(=O)(=O)c3cccs3)cc2C1=O | i | i | i | i
C[C@@H]1CN([C@H](C)CO)C(=O)Cc2cc(NC(=O)CCC(F)(F)F)ccc2O[C@@H]1CN(C)C | i | i | i | i
C[C@@H]1CN([C@@H](C)CO)C(=O)Cc2cc(NC(=O)C3CC3)ccc2O[C@H]1CN(C)S(=O)(=O)c1cn(C)cn1 | i | i | i | i
C[C@H](CO)N1C[C@H](C)[C@H](CN(C)Cc2ccncc2)Oc2c(NC(=O)NC3CCCCC3)cccc2C1=O | i | i | i | i
C[C@@H]1CN([C@H](C)CO)C(=O)Cc2cc(N(C)C)ccc2O[C@@H]1CN(C)C(=O)Nc1cccc2ccccc12 | i | i | i | i
C[C@@H]1CN([C@H](C)CO)C(=O)Cc2cc(NS(C)(=O)=O)ccc2O[C@H]1CN(C)C(=O)Nc1ccc(C(F)(F)F)cc1 | i | i | i | i
C[C@@H]1CN([C@H](C)CO)C(=O)CCCn2cc(nn2)CO[C@H]1CN(C)Cc1ccccc1 | i | i | i | i
